High-throughput results: PubChem, National Center for Advancing Translational Sciences (NCATS)
ClpP mod: qHTS Assay for Activators of ClpP; purified B. subtilis ClpP, FRET peptide cleavage, 20 min; Potency, µM (series often up to 57.5 µM), inactives show at the top dose activity change, negative = active; 340,000 compounds, 1.9% hits; AID 651965, 2013; active = well fitted falling curve with a large enough effect; inconclusive = small, poorly fitted or top-dose-only effect; inactive = no such curve, though single readings can be large or run the other way; note: the source files actives as falling curves though it sought activators and does not explain the sign; nearly all actives have a fitted effect of over 65% in size; many hits overshoot -100%
Target sequence (P80244 whole entry, looked up): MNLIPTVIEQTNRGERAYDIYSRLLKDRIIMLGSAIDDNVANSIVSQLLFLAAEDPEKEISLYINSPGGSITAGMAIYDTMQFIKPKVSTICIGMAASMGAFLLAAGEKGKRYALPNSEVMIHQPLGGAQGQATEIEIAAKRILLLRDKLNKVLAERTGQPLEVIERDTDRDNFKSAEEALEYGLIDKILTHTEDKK
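FRET quenching reversal measured ClpP activation: 10 microg/mL B. subtilis ClpP at pH 8 with the FRET-FV decapeptide, read at 430 nm after 320 nm excitation. The 20-min minus 0-min signal was scaled between DMSO/no-enzyme wells and ADEP (5.8 microM final).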
* hit, by the source's call; ? = inconclusive. Potency is the fitted concentration of half-maximal effect. Some of the compounds tested. The share of hits here may be higher or lower than overall.

SMILES	ClpP mod
CCN1CCN(CCCNC(=O)Cn2c(-c3cccs3)cc3cc(F)ccc32)CC1	17.8µM*
CCOc1ccccc1NS(=O)(=O)c1ccc2[nH]c3c(c2c1)CCCCC3	-16.3%
N#Cc1nc(-c2ccc(COc3ccc(Cl)cc3)o2)oc1N1CCN(c2ccccc2)CC1	-8.1%
CC(C)CCNc1nc2c(S(=O)(=O)c3ccc(Br)cc3)nnn2c2ccsc12	-17.0%
COc1ccc(CNC(=O)CN(c2ccc(C)cc2)S(=O)(=O)c2c(C)n[nH]c2C)cc1	-1.5%
CCOc1ccc(C2C(C(N)=O)=C(C)Nc3nc(SCc4ccccc4F)nn32)cc1 (centres undefined)	-6.3%
COc1ccc(NC(=O)c2oc3ccccc3c2NC(=O)COc2ccc(C(C)C)cc2)c(OC)c1	?
N#Cc1ccccc1CSc1nnc(-c2ccc(Br)cc2)o1	-1.0%
Cc1ccc2c(c1)-c1nc(-c3ccc4c(c3)NC(=O)CO4)cc(-c3ccc(Cl)cc3)c1CO2	?
COc1ccc(C(=O)CC2(O)C(=O)Nc3c(C)cccc32)c(OC)c1OC (centres undefined)	-0.2%
CC(C)C1Cc2[nH][nH]c(=O)c2C(C2CC2)O1 (centres undefined)	0.8%
CN1CCN(C(=O)c2cnn(-c3cccc(F)c3)c2C2CCN(C(=O)OC(C)(C)C)CC2)CC1	0.4%
Cc1oc(-c2ccc(C(=O)NCc3ccc(F)cc3)cc2)nc1CS(=O)c1ccccc1 (centres undefined)	-9.4%
COc1cccc(C2c3c(oc4ccc(C)cc4c3=O)C(=O)N2CCCN2CCOCC2)c1OC (centres undefined)	-2.7%
CCOC(=O)C1CCN(C(=O)Cn2ncc3c4ccccc4n(Cc4ccccc4F)c3c2=O)CC1	4.1%
Cc1ccc(CN2C(=O)CN(C3CCCCCC3)C(=O)C2c2ccc(F)cc2)cc1 (centres undefined)	-0.9%
COc1ccc(CNC(=O)Cc2csc3ccccc23)cc1OC	-0.1%
COc1ccccc1CNC(=O)CSc1ncc2c(n1)-c1ccccc1N(Cc1ccc(C)cc1)S2(=O)=O	-4.0%
COc1ccc(NC(=O)CCS(=O)(=O)c2cc(Br)cc3c2N(C(C)=O)CC3)c(OC)c1	0.4%
COc1ccc(/C=c2\[nH]c(=O)/c(=C/c3ccc(OC)cc3)[nH]c2=O)cc1	-0.7%
Cc1ccc(CN2CCOCCS2(=O)=O)cc1	-2.0%
COC(=O)c1cccc(Nc2c(-c3ccc(O)c(OC)c3)nc3nc[nH]n23)c1	0.0%
COc1cccc(CNC(=O)Cn2nc3c(cc2=O)CCCC3)c1OC	-2.4%
CCOc1ccc(-n2c(Cc3ccccc3)nnc2SCc2nc(-c3ccccc3OC)no2)cc1	0.4%
CCC1=C(c2ccc(C)cc2)S(=O)(=O)N=C1N1CCC(C(=O)Nc2ccccc2F)CC1	-2.1%
Following part:
SMILES	ClpP mod
CC1CCN(S(=O)(=O)c2ccc3nc(-c4cccnc4)cc(C(=O)NCCCOC(C)C)c3c2)CC1	0.6%
COc1ccc(OCC(=O)NC2CC(=O)N(c3ccc4c(c3)OCCO4)C2)cc1 (centres undefined)	0.3%
N#Cc1ccccc1NC(=O)c1cc2c(=O)n3ccccc3nc2s1	4.0%
O=C(Nc1cccc(Br)c1)Nc1nc2c(s1)CCCCCC2	-2.1%
CN(C)CCN1CCN(C(c2ccnc3ccccc23)c2nnnn2-c2ccc3c(c2)OCCO3)CC1 (centres undefined)	-2.9%
COc1cc(NS(=O)(=O)c2ccc(-c3cc(C)no3)cc2)cc(OC)c1	-6.3%
Cc1ccc(NC(=O)CN(C)S(=O)(=O)c2ccc3c(c2)n(C)c(=O)c(=O)n3C)cc1C	-0.8%
CCOC1CCCc2oc(-c3ccsc3)c(-c3cnc(OC)nc3)c21 (centres undefined)	5.5%
Cc1cccc(CCNC(=O)Cn2ncc3c(=O)oc4ccccc4c32)c1	2.9%
CN(Cc1ccccc1)C(=O)[C@@H]1CCCN1C(=O)OC(C)(C)C	-1.7%
COCCNC(=O)c1c(NC(=O)Cc2coc3cc(C)ccc23)sc2c1CCCC2	-2.7%
COc1ccc2[nH]c(C)c(C(=O)CNc3nccs3)c2c1	-3.0%
Cc1cccc(-c2noc(-c3ccc(N4CCN(C)CC4)c([N+](=O)[O-])c3)n2)c1	0.8%
CCOC(=O)C(=O)Nc1nnc2n1CCS2	-1.9%
COc1ccccc1NC(=O)Cn1c(=O)n(CCCCCC(=O)NCc2ccccc2)c(=O)c2sccc21	-10.8%
Cc1cccc(NC(=O)c2sc(-n3nc(C)c(CCC(C)C)c3C)nc2C)c1C	-0.8%
CCn1c(=O)c2cc(C(=O)NCCc3ccc(Cl)cc3)sc2c2ccccc21	?
Cc1c(C(=O)N2CCCC2)oc2c1-c1nn(CC(=O)NC(C)c3ccccc3)cc1CC2 (centres undefined)	6.2%
Cc1ccc(C2=Nc3ccccc3N(CC(=O)NCc3ccccc3Cl)C(=O)C2)cc1C	-5.1%
CCc1ccc(-n2c(=O)c3cccnc3n2CC(=O)N(CC)c2cccc(C)c2)cc1	4.0%
Cc1nc2cccnc2n1C1CCN(C(=O)Nc2ccc(Cl)cc2)CC1	-0.4%
CCCCN(CCCC)CCCNC(=O)c1cc(-c2ccc(Cl)s2)nc2ccccc12	35.5µM*
Cc1cccc(OCC(=O)Nc2ccc(-c3nc4ccccc4o3)cc2)c1C	4.3%
Cc1ccc(CN(Cc2ccco2)C(=O)COc2cc(C)c(Cl)c(C)c2)cc1	1.3%
Cc1ccc(CNC(=O)CCc2nc3cccnc3n2Cc2ccccc2)cc1	-1.9%

Look-ups from the results shown.
ClpP mod result of CCOC(=O)C(=O)Nc1nnc2n1CCS2 = -1.9%
ClpP mod result of CN(Cc1ccccc1)C(=O)[C@@H]1CCCN1C(=O)OC(C)(C)C = -1.7%
ClpP mod result of Cc1cccc(OCC(=O)Nc2ccc(-c3nc4ccccc4o3)cc2)c1C = 4.3%
ClpP mod result of CC1CCN(S(=O)(=O)c2ccc3nc(-c4cccnc4)cc(C(=O)NCCCOC(C)C)c3c2)CC1 = 0.6%
ClpP mod result of COCCNC(=O)c1c(NC(=O)Cc2coc3cc(C)ccc23)sc2c1CCCC2 = -2.7%
ClpP mod result of Cc1ccc(C2=Nc3ccccc3N(CC(=O)NCc3ccccc3Cl)C(=O)C2)cc1C = -5.1%

(listing goes on)
SMILES	ClpP mod
CCOc1ccc(CCNC(=O)Cn2nnc(-c3ccc(C(F)(F)F)cc3)n2)cc1OCC	-0.4%
CCC(=O)N1CCc2cc(Br)cc(S(=O)(=O)CCC(=O)NCc3ccc(F)cc3)c21	1.9%
Cc1ccc(C(=O)CSc2nc(C)cc(C)c2C(=O)Nc2cccc(C)c2)cc1	-4.5%
O=C(NCc1ccccc1)C(c1ccncc1)n1c(=O)c(-c2ccccc2)nc2ccccc21 (centres undefined)	4.1%
CCOc1ccccc1NC(=O)CCS(=O)(=O)c1ccc2c(c1)oc(=O)n2C	0.8%
CCN(CC)c1cc(C)c2cc(NC(=O)c3cc(OC)cc(OC)c3)ccc2n1	-24.5%
COc1ccc(NC(=O)C2c3ccccc3OCC(=O)N2C2CC2)cc1 (centres undefined)	0.2%
Cc1ccc(CNC(=O)CCNS(=O)(=O)c2ccc3c(c2)oc(=O)n3C)cc1	-1.9%
O=C1CCCc2cc(S(=O)(=O)NCC3CCC(C(=O)Nc4ccccc4F)CC3)ccc2N1 (centres undefined)	-3.6%
Cn1nc(C(=O)Nc2ccccc2C#N)c2c1-c1ccccc1SC2	1.8%
COc1ccccc1Nc1c2c(nc3ccc(NC(=O)c4ccc(OC)c(OC)c4)cc13)CCCC2	0.9%
CCSc1ncc(Cl)c(C(=O)Nc2ccc(S(=O)(=O)N3CCCCC3CC)cc2)n1 (centres undefined)	-9.9%
CCn1cc(S(=O)(=O)c2ccc(C)cc2C)c(=O)c2cc(F)c(N3CCCC3)cc21	31.6µM*
COc1ccccc1-n1nc(-c2ccccc2)c2cnc3c(F)cc(F)cc3c21	-7.9%
O=C(Cn1nnc(-c2ccccc2Cl)n1)Nc1ccc(Br)cc1	1.1%
CC(C)(C)NC(=O)Cn1cc(S(=O)(=O)Cc2ccccc2Cl)c2ccccc21	-0.4%
CCc1ccc(NC(=O)CSc2nc3c(oc4ccccc43)c(=O)n2-c2cccc(C)c2)cc1	-5.6%
CCOc1ccc(NC(=O)CC2C(=O)N(c3ccccc3)C(=O)N2Cc2ccc3c(c2)OCO3)cc1 (centres undefined)	-0.1%
O=C1Cc2cc(S(=O)(=O)N3CCCCC3)cc3c2N1CCC3	0.5%
COc1ccc(C(=O)Nc2ccc(-n3nncc3-c3ccccc3)cc2)cc1OC	-4.3%
COc1cc(OC)c(-c2cc(C(=O)NCc3ccc(F)cc3)c3c(-c4ccccc4)[nH]nc3n2)cc1OC	50.0%
COc1ccc(-c2c(C#N)c(SCC(=O)Nc3ccccc3C)nc(C)c2C(=O)Nc2ccc(Cl)cc2)cc1	-21.3%
CC(=O)c1cc(C(=O)Nc2cc(C)cc(C)c2)c2ccccn12	-22.6%
CCOc1ccc(NC(=O)CSc2nc3ccccc3c(=O)n2CCC(=O)NC2CCCCC2)cc1	-1.2%
COc1ccc2c(c1)NC(c1ccc(OCC(C)C)cc1)=NC(c1ccncc1)=N2	-0.4%
Other results.
SMILES	ClpP mod
Cc1cc(C)c2sc(NC(=O)c3ccc(S(=O)(=O)N4CCOCC4)cc3)nc2c1	3.6%
N#Cc1nc(COc2cccc(Cl)c2)oc1NCCc1ccccc1	-1.9%
Cc1ccccc1CN1C(=O)c2ccccc2C1c1nnnn1C(C)C (centres undefined)	-2.8%
Cn1c(Oc2cccc(Cl)c2)nc2c1c(=O)n(Cc1ccccc1Cl)c(=O)n2C	-0.5%
Cc1ccc2ccccc2[n+]1CCCCI	?
COc1cccc(N2CCN(C(=O)Cn3c(-c4cccs4)cc4ccccc43)CC2)c1	15.8µM*
Cc1ccccc1C(=O)Nc1ccc2nc(SCC(=O)N3CCc4ccccc43)sc2c1	3.9%
O=C(c1cccn1-c1nnc(N2CCCCC2)s1)N1CCN(c2ccccc2)CC1	-3.8%
CN(C)c1ccc(/C=C/c2cccc3ccccc23)cc1	4.2%
COc1cc(-c2ccno2)ccc1S(=O)(=O)N1CCN(c2ccccc2F)CC1	-6.0%
CCC(C)n1c(=N)c(C(=O)NCc2ccco2)cc2c(=O)n3cc(C)ccc3nc21 (centres undefined)	4.3%
CCOc1ccccc1CNC(=O)CN1C(=O)CCCc2ccccc21	1.7%
Cn1c(=O)c2c(nc(N3CCOCC3)n2Cc2cccc(Br)c2)n(C)c1=O	-2.1%
COC1=C2C[C@H](C)C[C@H](OC)[C@@H](O)[C@@H](C)C=C(C)[C@H](OC(N)=O)[C@@H](OC)C=CC=C(C)C(=O)NC(=CC1=O)C2=O	-22.7%
Cc1ccc(NC(=O)Cn2cnc3nc4c(cc3c2=O)CCCC4)cc1Cl	-2.4%
COc1ccc2[nH]c(=O)c(CN(C(=O)c3cccc(Cl)c3)c3ccccc3C)cc2c1	-14.4%
Cc1ccc2nc(-c3ccc(C)o3)c(Nc3ccc4c(c3)OCO4)n2c1	4.3%
O=C(NCCc1csc(-c2ccc(C(F)(F)F)cc2)n1)C(=O)Nc1ccc(F)c(Cl)c1	-4.0%
Cc1ccc(-c2nnc(Nc3ccc(S(N)(=O)=O)cc3)c3ccccc23)cc1S(=O)(=O)N1CCOCC1	5.9%
CCc1ccc(NC(=O)Cn2nc(C(F)(F)F)c3c2CCCC3)cc1	3.3%
C=CCC[C@H](CCCCC)OC(=O)/C=C/[C@H](O)[C@@H](O)C[C@@H](O)CC=C	0.0%
Cc1ccccc1-n1c(SCC(=O)c2ccccc2)nnc1-c1ccc(F)cc1	-5.4%
CCc1ccc(NC(=O)Cn2c(=O)n(CCC(=O)NCc3ccc4c(c3)OCO4)c(=O)c3ccccc32)cc1	-3.6%
O=C1Nc2ccccc2C(=O)N(C2CCCC2)C1C(=O)NC1CC1 (centres undefined)	-0.8%
Fc1ccc(Nc2ncnc3c2nc2n3CCCCC2)c(F)c1	-3.8%

Four of the compounds above, with bars between the fields:
molecule | ClpP mod
COC1=C2C[C@H](C)C[C@H](OC)[C@@H](O)[C@@H](C)C=C(C)[C@H](OC(N)=O)[C@@H](OC)C=CC=C(C)C(=O)NC(=CC1=O)C2=O | -22.7%
Cc1ccc(NC(=O)Cn2cnc3nc4c(cc3c2=O)CCCC4)cc1Cl | -2.4%
COc1ccc2[nH]c(=O)c(CN(C(=O)c3cccc(Cl)c3)c3ccccc3C)cc2c1 | -14.4%
Cc1ccc2nc(-c3ccc(C)o3)c(Nc3ccc4c(c3)OCO4)n2c1 | 4.3%

Carrying on:
SMILES	ClpP mod
COc1ccc(-n2ncc3c(NCCC4=CCCCC4)ncnc32)cc1	3.9%
Cc1cccc(-c2nc(SCC(=O)Nc3ccc4c(c3)OCO4)c(-c3ccccc3)[nH]2)c1	?
O=C(NCc1ccccc1)C(c1ccc(C(F)(F)F)cc1)n1c(=O)c(-c2cc3ccccc3[nH]2)nc2ccccc21 (centres undefined)	28.2%
CC(C)(C)C1CCN2CCC[C@](c3ccccc3)(C1)[C@@]21CO1 (some centres undefined)	-0.5%
CCOc1ccc(C2C(C(=O)Nc3ccc(Cl)cc3)=C(C)Nc3nc(C(F)(F)F)nn32)cc1 (centres undefined)	15.2%
O=S(=O)(Nc1ccc(Cl)cc1)c1ccc(NS(=O)(=O)c2ccc3c(c2)OCCO3)cc1	-0.8%
O=C(COc1ccc2ccccc2c1)NC1CC(=O)N(c2cccc(F)c2)C1 (centres undefined)	0.4%

2 entries drawn at random from the list so far:
SMILES	ClpP mod
O=C(COc1ccc2ccccc2c1)NC1CC(=O)N(c2cccc(F)c2)C1 (centres undefined)	0.4%
COc1ccc(-n2ncc3c(NCCC4=CCCCC4)ncnc32)cc1	3.9%
